# Screens deposited in PubChem BioAssay by several laboratories.
# MT1-MMP promoter: inhibitors of MT1-MMP promoter transcription, cell-based, luciferase reporter, luminescence (AID 618); MT1-MMP promoter luciferase reporter cells, luminescence; calls from a first round at 10 µM; hits with a dose series show EC50 in µM; 87,000 tested, 0.62% active;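 active = over half of the reporter light lost at 10 µM or EC50 under 50 µM; inactive = the rest and hits that failed the dose series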;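 also: actives suppress MT1-MMP promoter-driven transcription so potencies describe inhibitors; HT1080 fibrosarcoma cells; overnight exposure; toxic or luciferase-blocking compounds were not removed from the actives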
# WNV NS2B-NS3 inh: blocks West Nile virus NS2B-NS3 protease activity | WNV NS2B-NS3 protease, fluorogenic substrate Ex360/Em465; hits give low values | P06935 | AID 577 | z-score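 (tested at a level between 10 and 100 µM)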 | 65,000 tested, 0.18% active;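 active = z-score at -3 or under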;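 also: score is relative to mean and spread of the compound wells of a plate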
# Target sequence (P06935 1371-1501 limits assumed): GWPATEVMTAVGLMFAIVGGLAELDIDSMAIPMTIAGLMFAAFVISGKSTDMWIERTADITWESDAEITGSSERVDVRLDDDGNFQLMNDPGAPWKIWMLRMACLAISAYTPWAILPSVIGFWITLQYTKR
# Target sequence (P06935 1502-1679 limits assumed): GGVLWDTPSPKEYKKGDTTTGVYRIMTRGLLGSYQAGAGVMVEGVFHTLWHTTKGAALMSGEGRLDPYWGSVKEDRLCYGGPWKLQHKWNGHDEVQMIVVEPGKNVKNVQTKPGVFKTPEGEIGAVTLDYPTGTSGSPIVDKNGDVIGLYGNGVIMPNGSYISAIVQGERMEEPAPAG
# Hsc70 ATP site: small molecules displacing fluorescent ligand from Hsc70 – biochemical, fluorescence polarization, primary screen (AID 568). Hsc70 fluorescence polarization, probe displacement; higher % means a stronger effect; strong numbers were not always called active. one-dose displacement, % at 20 µM; IC50 in µM for titrated hits. 83,000 tested, under 10 active;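 active = displacement above 50% without optical interference and an IC50 on retest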;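 also: ATPase domain with a fluorescein-tagged ATP probe; 0% = vehicle and 100% = excess ADP; read after one hour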
# Active calls of the source: *; i = inactive; nt = no result given.
SMILES,MT1-MMP promoter,WNV NS2B-NS3 inh,Hsc70 ATP site
COc1ccc(N/C(N)=N/c2nc(CSc3ccc(C)cc3)cc(=O)[nH]2)cc1,i,-1.2,-7.0%
O=C(Nc1nccs1)c1ccc(COc2ccc(Cl)cc2)o1,i,-0.08,-4.7%
Cc1ccc(C2CCN(C(=O)Nc3ccccc3)C2)cc1 (centres undefined),i,1.4,5.7%
COc1ccc(C2SC[C@@H](C(=O)O)N2C(C)=O)cc1 (some centres undefined),i,nt,-3.2%
O=S(=O)(N/N=C\c1ccc(-c2ccccc2Cl)o1)c1ccccc1,i,nt,-2.2%
O=C(COC(=O)CCc1nc2ccccc2s1)Nc1ccc(S(=O)(=O)N2CCOCC2)cc1,i,1.5,-2.8%
COC(=O)c1cc(Br)c(=O)n(CCN(C(C)C)C(C)C)c1,i,0.78,0.2%
CC(=O)Nc1ccc2oc(-c3ccccc3Br)nc2c1,i,0.22,-7.1%
CCOC(=O)c1ccc(NC(=O)CSc2nc(NC(=O)c3ccccc3)c3c(C)c(C)oc3n2)cc1,i,nt,0.4%
O=c1[nH]c(CSc2nnc(-c3cccnc3)n2C2CCCCC2)nc2ccccc12,i,nt,1.5%
Cc1noc(C)c1C(=O)N1CCN(c2ncccn2)CC1,i,-0.61,-0.8%
COC(=O)c1cc(Br)c(=O)n(Cc2ccc(C(=O)O)cc2)c1,i,0.77,5.9%
COc1ccc(CN2C(=O)c3cccnc3C2Nc2cc(Cl)ccc2OC)cc1 (centres undefined),i,-1,-0.2%
CC(=O)N1CCc2cc(S(=O)(=O)CCC(=O)Nc3ccc4c(c3)OCCO4)ccc21,i,-0.25,-2.2%
Cc1cc2nnc(SCc3ccccc3)n2c(N)n1,i,0.9,3.6%
CCN(CCCNC(=O)C1CCN(S(=O)(=O)N2CCC3(CC2)OCCO3)CC1)c1ccccc1,i,0.66,-7.2%
COc1ccccc1N1CCN(Cc2cc(=O)n3ccsc3n2)CC1,i,nt,0.6%
CCn1cc(C(=O)N2CCOCC2)c(=O)c2cc(S(=O)(=O)N(C)C3CCCCC3)ccc21,i,-0.95,0.2%
CC(C)c1nc(SCC(=O)NCc2ccccc2)n[nH]1,i,0.55,2.9%
Cc1cc(OCCN2CCCCC2)nc2ccccc12,i,-2.8,-3.1%
CC(=O)Nc1ccc(S(=O)(=O)Nc2nccc(C3Cc4ccccc4C(=O)O3)n2)cc1 (centres undefined),i,-0.53,1.9%
COc1ccc(C2CC(c3cccs3)=Nc3ccccc3S2)cc1OC (centres undefined),i,nt,-0.6%
Cc1ccccc1-c1ccc(C=Nc2c(C)n(C)n(-c3ccccc3)c2=O)o1,i,-0.56,-2.2%
Cc1csc(C(C#N)C(=O)c2ccncc2)n1 (centres undefined),i,1.6,-6.3%
O=C(OCc1cc2ccccc2[nH]c1=O)c1ccco1,i,-1.1,7.4%
CSc1nc(N)nc(SC2C=CCCC2)c1C#N (centres undefined),i,-0.3,-0.1%
O/N=C1/CCCCC1c1ccccn1 (centres undefined),i,-0.32,4.4%
O=C(NCc1ccccc1)c1ccc2c(c1)C(=O)N(Cc1ccncc1)C2=O,i,nt,7.1%
O=c1c2ccccc2ncn1-c1ccc2c(c1)OCCO2,i,0.28,2.1%
COCCNC(=O)CN(C)S(=O)(=O)c1ccc2c(c1)OCCO2,i,0.46,5.7%
CC(C)Cc1cc(C(=O)NCc2ccco2)no1,i,1,3.5%
O=C(CSc1ncn[nH]1)N1CCN(S(=O)(=O)c2ccccc2)CC1,i,nt,-1.2%
Cc1cc(NC(=O)CSCCO)no1,i,nt,-2.2%
CCn1cc(C(=O)N2CCc3ccccc32)c(=O)c2cc(S(=O)(=O)N3CCOCC3)ccc21,i,0.86,-3.9%
Cc1ccc(S(=O)(=O)n2nc(-c3ccco3)nc2SCc2ccccc2)cc1,i,0.08,0.3%
O=C(CN1CCCCC1)Nc1ccc(S(=O)(=O)NC2CCCCC2)cc1,i,-0.17,5.6%
O=C(c1ccccc1)n1nc(-c2ccccc2)nc1NCc1ccco1,i,-0.84,0.7%
CCn1c2ccc(CC(=O)O)cc2c2cc(CC(=O)O)ccc21,i,0.96,-1.5%
CNC(=O)COC(=O)c1cccnc1SC,i,nt,0.8%
CCCCNC(=O)c1sc2ncnc(N3CCc4ccccc4C3)c2c1C,i,nt,2.7%
CCOC(=O)C(=O)Nc1nnc(Cc2ccc(OC)c(OC)c2)s1,i,nt,6.1%
COc1ccccc1NS(=O)(=O)c1ccc2oc(SC3CCOC3=O)nc2c1 (centres undefined),i,0.15,-1.4%
COCCn1nnnc1C(c1cc2cc(C)ccc2[nH]c1=O)N1CCN(C2CCCCC2)CC1 (centres undefined),i,-0.26,85%
O=C(CSc1nnc(-c2cccnc2)n1C1CCCCC1)NC1CCCC1,i,0.18,2.7%
N#Cc1cc(-c2ccccc2)nnc1Sc1ccc(F)cc1,i,nt,4.0%
Cc1cccc(CSc2nnc(Cn3c(=O)sc4ccccc43)n2C)c1,i,0.72,1.3%
CCC(C)n1c(C)nc2c(c1=O)c1nc3ccccc3nc1n2-c1ccc2c(c1)OCCO2 (centres undefined),i,0.88,-25%
O=C(O)CCCC(=O)N1CCc2cc(S(=O)(=O)N3CCc4ccccc43)ccc21,i,-0.12,-2.2%
Cc1noc(/C=C/N(C)C)c1S(=O)(=O)N1CCCC(C(=O)NCc2ccccc2Cl)C1 (centres undefined),i,-1.2,-0.3%
Cc1cc(N2CCCc3ccccc32)n2ncnc2n1,i,0.58,-7.7%
# (further entries)
SMILES,MT1-MMP promoter,WNV NS2B-NS3 inh,Hsc70 ATP site
O=C(CC(=O)c1ccccc1O)c1cccc(F)c1,i,-0.47,-0.5%
COC(=O)c1ccc(C2C(C(=O)Nc3ccccc3C)=C(C)Nc3ncnn32)cc1 (centres undefined),i,-0.11,4.2%
Cn1c(/C(C#N)=C/C2CC=CCC2)nc2ccccc21 (centres undefined),i,-0.01,-0.2%
CCc1ccc(Nc2ncc3c(n2)CC(c2ccco2)CC3=O)cc1 (centres undefined),i,-0.39,-3.2%
CC1CCN(c2nc3c(c(=O)n(C)c(=O)n3C)n2CCSc2nc3ccccc3s2)CC1,i,1.2,-1.1%
COc1ccc(N2CCN(C(=O)c3sc4nc(-c5ccc(F)cc5)cn4c3C)CC2)cc1,i,-0.51,2.9%
CC(=O)Nc1ccc(NC(=O)CSc2ncnn2-c2ccccc2)cc1,i,nt,0.8%
Cc1cc(-c2ccccc2)c(C#N)c(SCC(N)=O)n1,i,-0.72,10%
O=S(=O)(Nc1ccc2c(c1)OCCO2)c1cccc2cccnc12,i,1.5,3.7%
CCOC(=O)N1CCN(C(=O)C2CC(=O)N(Cc3ccc(OC)cc3)C2)CC1 (centres undefined),i,-0.82,1.8%
Cc1nc2c(C(=O)O)cnn2c(C)c1Cc1ccccc1F,i,0.97,0.6%
CCOc1ccc(N2CC(O)Cn3c2nc2c3c(=O)n(CCCc3ccccc3)c(=O)n2C)cc1 (centres undefined),i,0.57,0.5%
CCOC(=O)c1sc2cccc(Cl)c2c1N,i,nt,-1.8%
CCn1c2ccccc2c2cc(NC(=O)CSc3nnnn3-c3ccccc3)ccc21,i,0.71,-1.0%
CCOCCn1c(C(C)C)nc2ccccc21,i,nt,-3.2%
COc1ccc(C2N(c3ccc(Cl)cc3)C(=O)C3CCCN32)cc1 (centres undefined),i,0.19,1.0%
CN(C)c1ccnc2sc(C(=O)NCc3ccccc3)c(N)c12,i,-0.81,1.3%
c1ccc(-c2cc(-c3nn4c(-c5ccco5)nnc4s3)c3ccccc3n2)cc1,i,0.36,0.8%
CCC(C)NC(=O)CC1Oc2ccc(C)cc2NC1=O (centres undefined),i,0.08,4.9%
O=C(COc1ccc2oc(-c3ccccc3)cc(=O)c2c1)NCc1ccco1,i,0.4,-2.6%

# Rewritten with tabs: six of the compounds above.
SMILES	MT1-MMP promoter	WNV NS2B-NS3 inh	Hsc70 ATP site
CCOCCn1c(C(C)C)nc2ccccc21	i	nt	-3.2%
COc1ccc(C2N(c3ccc(Cl)cc3)C(=O)C3CCCN32)cc1 (centres undefined)	i	0.19	1.0%
CN(C)c1ccnc2sc(C(=O)NCc3ccccc3)c(N)c12	i	-0.81	1.3%
c1ccc(-c2cc(-c3nn4c(-c5ccco5)nnc4s3)c3ccccc3n2)cc1	i	0.36	0.8%
CCC(C)NC(=O)CC1Oc2ccc(C)cc2NC1=O (centres undefined)	i	0.08	4.9%
O=C(COc1ccc2oc(-c3ccccc3)cc(=O)c2c1)NCc1ccco1	i	0.4	-2.6%

# The list continues.
SMILES,MT1-MMP promoter,WNV NS2B-NS3 inh,Hsc70 ATP site
CCOc1ccccc1CNS(=O)(=O)c1ccc2[nH]c(=O)sc2c1,i,-0.84,-2.0%
CCc1ccc2oc(=O)cc(CN3CCN(c4ccc(F)cc4)CC3)c2c1,i,-1,-22%
C=CCn1c(C(C)NC(=O)C(C)(C)C)nc2ccccc21 (centres undefined),i,nt,-7.0%
Cn1c(=O)[nH]c(=O)c2c1nc(N1CCCCCC1)n2CCN1CCCCCC1,i,0.2,11%
CCOc1ccc(-n2c(Cc3ccccc3)nnc2SCc2c(C)noc2C)cc1,i,0.99,-2.2%
CC1CCc2c(sc(NC(=O)c3noc4c3CCCC4)c2C(N)=O)C1 (centres undefined),i,-0.45,-1.3%
O=C(Nc1ccccc1F)N(CCCN1CCOCC1)Cc1cc2cc3c(cc2[nH]c1=O)OCCO3,i,-0.63,-7.4%
CCOC(=O)N1CCC(NC(=O)Cn2ncc3ccccc32)CC1,i,-0.97,1.9%
COc1ccccc1NC(=O)/C=C/C(N)=O,i,nt,-3.1%
Cc1ccc2c(c1)nnn2C1CCN(C(=O)NC23CC4CC(CC(C4)C2)C3)CC1,i,-0.12,4.1%
CCN(CC)CCCNC(=O)CCc1ccccc1,i,nt,1.7%
COC(=O)c1[nH]c2cccc(Cl)c2c1NC(=O)CN1CCCCC1C (centres undefined),i,-0.51,4.1%
COC(=O)CSc1nnc(CNC(=O)Cc2ccccc2)n1C,i,1.1,8.8%
COc1ccccc1NC(=O)CSc1nnc(C)n1CCc1ccccc1,i,-0.12,-0.8%
Cc1ccc(S(=O)(=O)N2CCCCC2)cc1C(=O)Nc1ccc2cn[nH]c2c1,i,-0.94,-0.7%
CCOC(=O)c1nnn(-c2nonc2N)c1COc1c(C=O)cccc1OC,i,nt,-0.9%
Fc1ccc(-c2cc3nc4c(c(N5CCOCC5)n3n2)CCCC4)cc1,i,-0.1,-0.1%
O=C(C1CC1)N1CCN=C1SCc1ccccc1,i,-0.59,2.0%
COC(=O)c1ccccc1NC(=O)CSc1n[nH]c(C)n1,i,nt,-2.5%
O=C(Nc1cccc(O)c1)c1cc(S(=O)(=O)N2CCCC2)ccc1Cl,i,-0.18,6.0%
COC(=O)C1=C(C)OC(N)=C(C#N)C1c1ccsc1 (centres undefined),i,nt,4.9%
CC(=O)c1cc(CN2C(=O)CCC2=O)cs1,i,-0.87,-2.7%
O=C(Cc1cccs1)NCc1cn2ccccc2n1,i,0.67,3.5%
COc1cc(OC)cc(-n2nnnc2SCC(=O)N2CCCc3ccccc32)c1,i,0.91,-0.6%
O=c1c(-c2ccccc2)[n+]([O-])c2ccccc2n1O,i,-0.52,5.0%
COC(=O)CSc1nc(N)c2c3c(sc2n1)CCCC3,i,-0.59,-3.2%
OC(CN(c1ccccc1)c1ccccc1)Cn1cnc2ccccc21 (centres undefined),i,-0.63,5.6%
Cc1cc(=O)n2[nH]cnc2n1,i,-0.08,6.0%
CC(C)(C)n1ncc2c(=O)n(CC(=O)c3ccccc3)cnc21,i,-0.11,-1.1%
O=C1Nc2ccccc2OC1CC(=O)N1CCN(c2cccc(C(F)(F)F)c2)CC1 (centres undefined),i,1.1,-5.1%

# Some of the entries so far, tab-delimited:
Molecule	MT1-MMP promoter	WNV NS2B-NS3 inh	Hsc70 ATP site
Cn1c(=O)[nH]c(=O)c2c1nc(N1CCCCCC1)n2CCN1CCCCCC1	i	0.2	11%
COC(=O)c1ccccc1NC(=O)CSc1n[nH]c(C)n1	i	nt	-2.5%
CCCCNC(=O)c1sc2ncnc(N3CCc4ccccc4C3)c2c1C	i	nt	2.7%
O=C(Nc1cccc(O)c1)c1cc(S(=O)(=O)N2CCCC2)ccc1Cl	i	-0.18	6.0%
c1ccc(-c2cc(-c3nn4c(-c5ccco5)nnc4s3)c3ccccc3n2)cc1	i	0.36	0.8%

# The results go on.
SMILES,MT1-MMP promoter,WNV NS2B-NS3 inh,Hsc70 ATP site
COc1ccc(CCN2C(=O)c3[nH]nc(-c4ccccc4O)c3C2c2cccc(Cl)c2)cc1 (centres undefined),i,nt,3.6%
CCC(CC)C(=O)N=C1SC2CS(=O)(=O)CC2N1CCc1ccc(OC)cc1 (centres undefined),i,nt,-7.5%
O=S(=O)(c1ccc(F)cc1)N1CCN(c2ncnc3c2cnn3-c2ccccc2)CC1,i,-0.09,0.2%
Cc1noc(C)c1COc1ccc(C(=O)OCC(=O)NC23CC4CC(CC(C4)C2)C3)cc1,i,nt,1.6%
CCOC(=O)C1(C(F)(F)F)N=C(c2cccnc2)OC(N2CCOCC2)=N1 (centres undefined),i,-1.3,-1.6%
COCCCN(C(=O)Nc1cccc(Cl)c1)C(C)c1ccccn1 (centres undefined),i,nt,4.4%
O=C(c1ccc(CN2CCOCC2)cc1)N1CCN(c2cccc(Cl)c2)CC1,i,nt,0.7%
COc1ccc(C)cc1NC(=O)CSc1nnc(COc2ccc(C)cc2)n1Cc1ccco1,i,1,2.9%
